Ecoli growth: E. coli growth inhibition; Escherichia coli growth, OD600, 23 h; stronger effect = lower value; OD600 absorbance (no concentration beside the values); actives 0.21% (n = 330,000);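 active means OD600 absorbance below the run mean of sample wells minus 3.6 SD, in any replicate, cut at about 0.56 in these data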;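 further: stock transfer was 300 nL into about 60 µL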
UCH37 inh: human UCH37 deubiquitinating enzyme inhibition; Q9Y5K5; actives 0.33% (n = 330,000); inhibition, % (no concentration beside the values); purified proteasome/UCH37, Ub-AMC cleavage fluorescence;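 active means mean of two replicates above 20%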;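 further: 0% = compound-free wells with enzyme and 100% = wells lacking proteasome; stock transfer was 100 nL into about 20 µL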
Target sequence (Q9Y5K5 whole entry, looked up): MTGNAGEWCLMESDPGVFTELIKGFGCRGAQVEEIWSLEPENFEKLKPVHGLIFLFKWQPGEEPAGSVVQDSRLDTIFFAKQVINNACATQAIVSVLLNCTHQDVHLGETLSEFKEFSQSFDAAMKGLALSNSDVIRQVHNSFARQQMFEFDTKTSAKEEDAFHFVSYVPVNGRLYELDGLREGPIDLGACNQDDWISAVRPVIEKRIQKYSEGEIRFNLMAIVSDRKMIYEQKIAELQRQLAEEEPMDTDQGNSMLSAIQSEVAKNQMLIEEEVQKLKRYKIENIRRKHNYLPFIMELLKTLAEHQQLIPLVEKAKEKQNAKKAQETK
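Assay system: Proteasome-bound UCH37. Buffer or medium: pH 7.4 Tris-HCl (50 mM) with ovalbumin, ATP-MgCl2, DTT. Incubation: 30 min preincubation with enzyme, 25 min cleavage at room temperature. Measured by: fluorescence, ex 355 nm, em 460 nm. Read-out basis: percent inhibition. Control set: wells without proteasome as full block, compound-free enzyme plus substrate as uninhibited.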
AF4-AF9 inh: blocks AF4 peptide binding to human AF9. AlphaScreen, biotin-AF4 peptide binding to FLAG-AF9. AID 651704. P42568. actives 0.47% (n = 350,000). inhibition, % at 10 µM;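 active means every replicate reaching a set inhibition limit, whatever the replicate mean, cut at about 25% in these data; inconclusive means mean inhibition reaches that limit but some replicates miss it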;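 further: 0% = plate neutral control median and 100% = total signal loss; the record names both 10 and 1 µM as test concentration; the first replicate is given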
RanGTP-Imp inh: disruptors of Ran-importin-beta complex formation – biochemical, FRET, CFP-Ran, YFP-importin-beta, homogeneous, primary screen | cell-free CFP-Ran/YFP-importin-beta FRET ratio | inhibition, % (concentration not given with the values) | actives 1.1% (n = 300,000) | AID 2216;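 active means most replicates above 15%; inconclusive means exactly half above 15%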;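 further: 0% = DMSO wells and 100% = Ran loaded with GDP instead of GTP; wells of about 40 µL received 100 nL stock; the first replicate is given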
Vif A3G: HIV-1 Vif–A3G interaction blockers – biochemical, TR-FRET, GST-Vif 1-94, biotin-A3G peptide, dose response retest, primary screen (AID 1117319); actives 0.57% (n = 260,000); inhibition, %; hits with a dose series show IC50 in µM; TR-FRET GST-Vif / biotin-A3G peptide binding; higher % means a stronger effect; test concentration not given here; strong numbers were not always called active;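 active means above the screen mean plus three standard deviations and confirmed in dose response; inconclusive means results disagree or hit not tested in dose response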;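 further: Vif residues 1-94 fused to GST binding biotinylated APOBEC3G peptide 110-148; 0% = full assay without inhibitor and 100% = GST in place of GST-Vif; retest series ran down from 100 µM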
HNF4A DNA FP: change in binding of human HNF4 alpha to DNA. HNF4a-FITC DNA binding, fluorescence polarization, 1 h. actives 0.3% (n = 360,000). activity change, % at 10 µM; in the data active means activity change above about 30%, passing the limit was not always enough;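 further: controls were the assay level and a saturating level of protein; the project sought stronger binding though the title names inhibitors; some compounds called inactive have numbers as strong as hits; positive values seem to mean higher polarization but the record does not say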
Target sequence (P41235 whole entry, looked up): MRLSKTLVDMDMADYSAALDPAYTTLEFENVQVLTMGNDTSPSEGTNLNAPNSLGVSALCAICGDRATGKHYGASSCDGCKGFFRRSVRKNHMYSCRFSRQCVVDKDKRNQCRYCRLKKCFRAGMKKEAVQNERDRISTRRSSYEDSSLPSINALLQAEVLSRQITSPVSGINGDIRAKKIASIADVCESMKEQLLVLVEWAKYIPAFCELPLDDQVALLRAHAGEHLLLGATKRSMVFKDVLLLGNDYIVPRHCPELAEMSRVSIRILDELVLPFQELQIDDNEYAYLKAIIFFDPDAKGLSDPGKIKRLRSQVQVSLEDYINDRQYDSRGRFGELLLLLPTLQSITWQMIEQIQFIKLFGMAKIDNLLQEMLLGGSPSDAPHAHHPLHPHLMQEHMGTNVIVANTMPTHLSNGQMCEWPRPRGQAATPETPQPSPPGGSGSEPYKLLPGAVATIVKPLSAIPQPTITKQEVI
FGF22 binding: binders of recombinant human FGF22 by thermal shift. Q9HCT0. SYPRO orange fluorescence; percent of sucrose octasulfate shift, DMSO zero. calls only at 9.99 µM. actives 1.5% (n = 340,000);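 active means melting point raised past a set limit in the mean and every replicate; inconclusive means no clear call; three in four hits are not shown here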
Target sequence (Q9HCT0 whole entry, looked up): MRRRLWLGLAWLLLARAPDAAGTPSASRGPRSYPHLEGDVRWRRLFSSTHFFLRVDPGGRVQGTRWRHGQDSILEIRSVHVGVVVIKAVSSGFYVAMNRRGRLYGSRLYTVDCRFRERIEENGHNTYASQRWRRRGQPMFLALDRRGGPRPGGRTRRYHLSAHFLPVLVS
Starred values were filed as active, the others as inactive; i = inactive; ? = inconclusive; . = no result given; & = joins results of further samples; ! = a repeat was not active. A portion of the library; count on the stated rates, not on these rows.

SMILES	Ecoli growth	UCH37 inh	AF4-AF9 inh	RanGTP-Imp inh	Vif A3G	HNF4A DNA FP	FGF22 binding
Cc1onc(-c2c(F)cccc2Cl)c1C(=O)NCc1ccc(S(N)(=O)=O)cc1	0.71	1.4	-0.6	.	.	-3.1	i
COc1cc(C(=O)NC2CCN(C)CC2)ccc1Nc1ncc2c(n1)N(C1CCCCC1)CCC(=O)N2C	.	.	1.2	.	.	-1.9	i
COc1ccc(N2CCN(C3CCCN(C(=O)c4cccc(C)n4)C3)CC2)cc1 (stereo unspecified)	0.69	2.7	-0.1	-4.3	.	0.8	i
O=C(Nc1ccc([N+](=O)[O-])cc1)c1cncc(Br)c1	0.67	4.6	-5.5	-7.3	-41%	3.8	i
COc1c(C)cc(C(O)c2ncc(-c3ccc(Cl)cc3)[nH]2)cc1C (stereo unspecified)	.	.	7.2	.	.	1.2	i
CC1(c2nnnn2Cc2ccccc2)CCC(=O)N1CCCn1ccnc1 (stereo unspecified)	.	.	-2.1	.	.	1.2	i
CC(=O)n1cc(C2C(=O)CC(C)(C)CC2=O)c2ccccc21	0.71	3.8	.	3.9	3%	-0.2	.
Cc1ccccc1-c1nc(CS(=O)CC(=O)NCc2ccccc2)c(C)o1 (stereo unspecified)	0.75	2.4	-5.4	-1.2	18%	5.7	i
Cc1cc(N)n(-c2ccc(S(N)(=O)=O)cc2[N+](=O)[O-])n1	0.68	1.2	0.5	4.4	2%	1.7	i
COc1cccc(CNC(=O)CCC2CCCN(C(=O)c3cc4ccccc4o3)C2)c1 (stereo unspecified)	0.71	4.4	-0.9	-0.6	-10%	-3.8	i
COc1ccc2c(c1OC)C(=O)N1c3ccccc3C(=O)N(c3ccccc3)C21 (stereo unspecified)	.	0.5	.	0.4	2%	0.8	.
COc1cccc(CNC(=O)c2ccc(Cl)c(NC3=NC4CS(=O)(=O)CC4S3)c2)c1 (stereo unspecified)	0.68	3.0	-2.4	-5.0	.	2.2	i
COc1cccc(-c2nc(CS(=O)(=O)c3ccccc3)no2)c1	0.77	0.7	.	?	29%	0.2	.
COc1ccccc1NC(=O)c1cc2ccccc2o/c1=N\O	.	.	.	-1.9	67µM*!	-3.8	.
COc1ccc(S(=O)(=O)Nc2ccc3c(c2)C(=O)N([C@@H](C)CO)C[C@@H](C)[C@H](CN(C)C(=O)CCCN(C)C)OCCCC[C@H](C)O3)cc1	.	.	3.3&-1.0	.	4%	1.9	i
O=C(CCN1C(=O)C2C3CCC(C3)C2C1=O)Nc1ccc(Cl)cc1Cl (stereo unspecified)	0.67	1.2	-0.1	3.5	.	0.6	i
O=C(c1cc2ccccc2c(=O)o1)N1CCCc2ccccc21	0.71	4.5	.	-4.5	-2%	1.1	.
CCN(CC)S(=O)(=O)c1ccc(OC)c(NC(=O)OCc2ccccc2)c1	0.67	-0.5	-0.6	4.8	.	1.9	i
CC(C)CNC(=O)c1cccc2c(-c3cccnc3)coc12	.	.	-1.5	.	.	-1.1	i
COc1cccc(C(=O)Nc2ccc(N3CCN(C(=O)c4cccs4)CC3)cc2)c1	0.64	1.7	-2.5	?	.	1.5	i
CC(=O)N1CC[n+]2c(-c3ccc([N+](=O)[O-])cc3)csc21	0.7	8.8	-2.3	-4.9	?	0.9	i
CC(C)C(=O)NC(Nc1cc(C(F)(F)F)ccc1Cl)C(Cl)(Cl)Cl (stereo unspecified)	0.7	4.3	.	2.9	?	-1.9	.
COc1ccc(Oc2c(C)oc3c(CN4CCOCC4)c(O)ccc3c2=O)cc1	0.7	-54	.	4.1	-3%	2.8	.
C[C@@H]1CN([C@@H](C)CO)C(=O)CCCn2nncc2CO[C@H]1CN(C)C	.	.	-0.2&2.0	.	-3%	0.0	i
COc1ccc(Cn2nnnc2C(c2cccs2)N2CCN(c3ccc([N+](=O)[O-])cc3)CC2)cc1 (stereo unspecified)	0.7	5.0	.	1.2	-6%	3.2	.

(further entries)
SMILES	Ecoli growth	UCH37 inh	AF4-AF9 inh	RanGTP-Imp inh	Vif A3G	HNF4A DNA FP	FGF22 binding
CN(C(=O)c1ccc(NC(=O)Cc2cccc(NC(=O)C3CCN(C(=O)C4CCCC4)CC3)c2)cc1)C1CC1	0.68	3.7	3.5	.	7%	1.0	.
Clc1ccc(SCCOCCN2CCOCC2)cc1	0.69	-1.0	-6.2	-20	.	-0.9	.
Cc1ccc(C2CC(C(F)(F)F)n3nc(C(=O)NCC4CCCO4)cc3N2)cc1 (stereo unspecified)	0.65	-3.1	.	1.4	6%	.	.
Cn1c(=O)c2c(nc(CN3CCN(Cc4ccccc4)CC3)n2Cc2ccc(F)cc2)n(C)c1=O	0.74	1.9	-34	2.2	8%	-1.0	i
Cc1ccc(CSc2nnc(CCNC(=O)OC(C)(C)C)o2)cc1	0.68	4.0	-3.0	-1.5	-3%	20	i
C=CCOc1c(Br)cc(CNn2c(C)n[nH]c2=S)cc1OCC	0.62	2.9	-5.5	1.1	.	1.2	i
CCOC(=O)c1[nH]c(C)c(C(=O)NC2CCN(C(=O)OCC)CC2)c1C	0.67	-2.9	.	5.7	4%	-2.7	.
CCC1(c2ccc(F)cc2)NC(=O)N(CC(=O)N2c3ccccc3NC(=O)CC2C)C1=O (stereo unspecified)	0.66	2.5	-0.1	.	.	-0.7	i
C[N+]1(CC(=O)NNc2c3ccccc3nc3ccccc23)CCOCC1	0.66	12	-8.2	2.4	7%	.	i
COc1ccc(Cc2nnc(NC(=O)Nc3ccc(C)cc3)s2)cc1OC	0.69	-4.3	-3.8	1.7	1%	4.5	i
COc1ccccc1N1C(=O)CC(Nc2ccc(N3CCOCC3)cc2)C1=O (stereo unspecified)	0.7	6.6	.	-1.5	?	3.4	.
CCOc1ccc(OCCCC(=O)Nc2cc(S(=O)(=O)N3CCOCC3)ccc2N2CCOCC2)cc1	0.67	4.1	3.9	.	.	0.4	i
COc1ccccc1NC(=O)c1ccc(NC(=O)COC(=O)CC(NC(=O)c2ccccc2Cl)c2ccccc2)cc1 (stereo unspecified)	0.72	5.8	-1.5	4.3	?	-2.0	i
CC(=O)Oc1ccc(Cn2c(C)c(C(=O)NCc3cccc(C(F)(F)F)c3)sc2=O)cc1	.	.	3.3	.	.	4.6	i
Cc1cc(=O)[nH]c(N/N=C/c2ccc(Cl)c([N+](=O)[O-])c2)n1	.	.	-0.8	6.1	-4%	-2.8	.
CC1(C)CC(=O)C2=C(C1)OC1=C(C2)C(=O)CC(C)(C)C1	0.69	3.5	.	-0.1	-2%	0.7	.
CNC(=O)c1[nH]cnc1C(=O)N[C@@H](C)C(=O)OCc1ccccc1	.	5.2	2.3	1.6	.	-2.5	i
CCN(C(=O)COC(=O)c1sccc1C)c1c(N)n(Cc2ccccc2)c(=O)[nH]c1=O	.	.	-0.1	-0.5	.	1.6	.
O=C(NCCN1CCOCC1)C1CCN(c2nc3ccccc3o2)CC1	0.65	-0.1	40*	-2.6	7%	8.3	i
N#Cc1c(SCC(=O)Nc2nccs2)sc2c(O)cc(=O)[nH]c12	.	.	-1.0	-3.5	.	-22	i
O=C(Cn1ncc2c(=O)oc3ccccc3c21)NCCCN1CCCC1=O	0.72	0.7	-2.3	0.4	-2%	0.9	.
CCCCCCn1c(N2CCN(c3ccccc3)CC2)nc2c1c(=O)[nH]c(=O)n2C	0.65	1.1	.	8.1	22%	4.0	.
CCC(NC(=O)Nn1cnnc1)(C(F)(F)F)C(F)(F)F	0.74	2.3	.	-3.6	4%	-6.7	.
COCCNC(=O)NC(=O)COC(=O)C1(c2ccc(Cl)cc2)CC1	0.63	1.5	-1.8	-0.3	-9%	3.8	i
COC(=O)c1cc(OC)c(OC)cc1NC(=S)N1CCN(C)CC1	0.7	-0.3	.	-2.9	19%	1.0	.

Ordered by the number under HNF4A DNA FP (low to high): four from the list above
Molecule | HNF4A DNA FP
COc1ccccc1NC(=O)c1ccc(NC(=O)COC(=O)CC(NC(=O)c2ccccc2Cl)c2ccccc2)cc1 (stereo unspecified) | -2.0
CC(C)CNC(=O)c1cccc2c(-c3cccnc3)coc12 | -1.1
Cc1cc(N)n(-c2ccc(S(N)(=O)=O)cc2[N+](=O)[O-])n1 | 1.7
O=C(Nc1ccc([N+](=O)[O-])cc1)c1cncc(Br)c1 | 3.8

AF4-AF9 inh: what is marked active above
Compound | UCH37 inh | AF4-AF9 inh | RanGTP-Imp inh | Vif A3G | HNF4A DNA FP | FGF22 binding
O=C(NCCN1CCOCC1)C1CCN(c2nc3ccccc3o2)CC1 | -0.1 | 40* | -2.6 | 7% | 8.3 | i

Carrying on:
SMILES	Ecoli growth	UCH37 inh	AF4-AF9 inh	RanGTP-Imp inh	Vif A3G	HNF4A DNA FP	FGF22 binding
CCN(CC)CCNC(=O)C1c2cc(OC)c(OC)cc2C(=O)N2CCc3ccccc3C12 (stereo unspecified)	0.77	1.8	.	.	2%	1.7	.
COc1ccc(-c2cc(=O)oc3cc(OC(C)C(=O)Nc4ccc(CN5CCOCC5)cc4)ccc23)cc1 (stereo unspecified)	0.68	-4.7	3.3	4.7	.	-1.9	i
CSc1ncc(CN2CCc3c([nH]c4ccccc34)C2C(C)(C)C)cn1 (stereo unspecified)	0.64	-42	5.7	12	.	-0.6	i
CC(C)CN(C(=O)COC(=O)/C=C/c1cccs1)c1c(N)n(Cc2ccccc2)c(=O)[nH]c1=O	0.69	2.1	0.5	3.5	-3%	2.4	i
Cc1cc(C(=O)N2CCN(C/C=C/c3ccccc3)CC2)cs1	0.64	-1.4	7.7	3.6	71%	1.3	i
Cc1cccc(C(=O)OCC(=O)Nc2sccc2C(N)=O)c1C	.	.	-2.2	.	.	2.6	i
CCOc1cc(/C=N/NC(=O)CSc2nncn2C)ccc1OCC(N)=O	.	.	2.0	3.2	.	-1.1	i
O=C(CC1CCCC1)N1CCN(S(=O)(=O)c2cccc(F)c2)CC1	0.69	-1.9	-1.2	.	-4%	2.0	i
COc1ccc(/C=C2\CCC(C3CCCC3)C2=O)cc1Cn1nc(C)cc1C (stereo unspecified)	0.71	5.1	.	0.0	0%	-0.6	.
CCOC(=O)c1ccc(-n2c(C)nc3ccc(Br)cc3c2=O)cc1	0.67	4.0	.	-0.8	6%	3.0	i
N#Cc1c2c(c(-c3ccccc3Cl)[nH]c1=S)CCCC2	0.71	2.9	-1.4	.	9%	0.0	i
COc1ccc(C(=O)N2CCN(C(=O)Cc3ccccc3)CC2)cc1	0.68	0.1	-2.9	3.2	?	-0.9	i
O=C(Nc1ccc2c(c1)OCCO2)c1ccc2nccnc2c1	0.7	3.4	-23	4.8	.	-0.2	i
Cc1ccc(NC(=O)CSCC(=O)NCc2ccco2)cc1	0.65	4.1	-7.8	-1.0	-9%	-0.5	i
Cc1cccc(C)c1NC(=O)C(C1CC1)n1c(=O)c(-c2ccco2)nc2ccccc21 (stereo unspecified)	.	.	-1.1	.	.	16	i
CCN(CC)C(=O)C1=C(C)N(Cc2ccc(F)cc2)C(=O)C(CC(=O)NC2CCCCC2)C1 (stereo unspecified)	.	.	-2.6	.	2%	0.2	i
Cc1cc(C)c(C(=O)NC2CCCc3c2cnn3-c2cccc(C)c2C)o1 (stereo unspecified)	0.7	-0.7	4.9	6.1	.	-0.4	i
CCOc1cc(NC(=O)c2ccccc2C)c(OCC)cc1NC(=O)C1=Cc2ccccc2OC1	0.69	5.6	.	?	4%	1.1	.
COCCSc1ccccc1C(=O)N1CCN(Cc2ccccc2)CC1	0.66	-0.9	-3.0	3.8	-7%	-4.9	i
COc1ccc(CCN(Cc2ccccn2)C(=S)Nc2ccc(C)cc2)cc1OC	0.69	2.9	9.6	7.3	-1%	2.4	i
